Source: PubChem
PKD1 inh: blocks activity of human protein kinase D1 | AID 797 | PKD1 kinase fluorescence polarization assay | inhibition, %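 (about 10 µM by stock and volumes)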 | Q15139 | hit rate 0.056% among 200,000;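 active = inhibition of 50% or more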;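 note: controls were vehicle for no effect and a reference inhibitor for full effect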
HSV replic up: HSV replication enhancement; HSV replication augmentation in cells, fold increase; maximum fold increase; hit rate 0.005% among 220,000; AID 1956;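 active = peak rise of 1.5-fold or more in the series; tested in PC3 cells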;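 note: first round at 10 µM; read as green reporter fluorescence; hits show the peak of a series up to 25 µM; 1 = signal of infected wells without compound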
INS promoter inh: TRM-6 insulin promoter activity inhibition. TRM-6 cells (human fetal islet line), insulin promoter-eGFP reporter, imaging; reporter expression induced with tamoxifen. inhibition, % at 2 µM. hit rate 0.9% among 130,000. AID 1273;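 active = inhibition above the mean plus 3 SD, with well images judged a real hit on visual review, cut at about 60% in these data, passing the limit was not always enough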
RGS16-Gao: modulates binding between human RGS16 and Galphao. hit rate 0.38% among 220,000. O15492+P09471. binding response (% of control), % at 10 µM. bead-based flow cytometry RGS16-Galphao binding, fluorescence; actives lie on both sides;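 active = below 25% or above 175%, edge rows of some plates excepted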;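 note: Galphao activated by GDP with aluminum fluoride before binding; 100% = wells without compound and 0% = beads without RGS; some results beyond the cut were filed as inactive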
Target sequence (O15492 whole entry, looked up): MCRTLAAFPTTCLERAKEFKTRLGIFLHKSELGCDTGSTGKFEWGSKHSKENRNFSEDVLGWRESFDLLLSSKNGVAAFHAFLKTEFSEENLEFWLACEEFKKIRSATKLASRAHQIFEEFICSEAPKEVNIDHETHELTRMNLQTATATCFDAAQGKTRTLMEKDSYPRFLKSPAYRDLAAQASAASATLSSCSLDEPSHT
Target sequence (P09471 whole entry, looked up): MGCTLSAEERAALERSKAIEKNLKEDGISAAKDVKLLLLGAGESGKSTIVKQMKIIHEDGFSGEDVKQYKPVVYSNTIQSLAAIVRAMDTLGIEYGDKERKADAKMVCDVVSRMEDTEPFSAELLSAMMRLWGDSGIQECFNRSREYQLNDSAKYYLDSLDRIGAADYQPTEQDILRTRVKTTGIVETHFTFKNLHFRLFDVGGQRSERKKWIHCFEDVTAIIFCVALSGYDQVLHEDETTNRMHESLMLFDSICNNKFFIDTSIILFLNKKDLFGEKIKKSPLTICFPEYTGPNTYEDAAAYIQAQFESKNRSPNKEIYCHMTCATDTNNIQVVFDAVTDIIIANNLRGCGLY
GALR2 agonist: agonists of human galanin receptor 2 (GALR2); O43603; GALR2-expressing cells, agonist activation read-out; activation, %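 (tested at 5 µM)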; hit rate 0.48% among 140,000;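 active = above mean plus 3 SD of all compounds, about 5% in these data, not always enough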;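 note: 0% = vehicle buffer wells and 100% = reference agonist at full effect; tested in CHO reporter cells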
Target sequence (O43603 whole entry, looked up): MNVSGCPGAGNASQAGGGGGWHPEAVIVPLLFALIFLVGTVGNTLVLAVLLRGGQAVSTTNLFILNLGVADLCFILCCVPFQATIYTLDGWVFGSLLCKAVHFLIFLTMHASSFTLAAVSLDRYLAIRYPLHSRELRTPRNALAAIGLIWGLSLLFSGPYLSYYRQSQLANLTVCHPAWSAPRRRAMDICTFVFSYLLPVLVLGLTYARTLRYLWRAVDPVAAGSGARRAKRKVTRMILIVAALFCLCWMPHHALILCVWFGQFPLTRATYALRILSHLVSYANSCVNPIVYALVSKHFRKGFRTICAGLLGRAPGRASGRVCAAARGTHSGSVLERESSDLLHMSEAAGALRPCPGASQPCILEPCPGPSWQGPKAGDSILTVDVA
INS promoter inh cell count: further read-out of INS promoter inh, marked with its call; normalized cell count, %; measured here: cell count, toxicity; reference of the scale not given here;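 cells exposed to compound for 48 h; stained nuclei by imaging scaled within each plate; lower means fewer cells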
HSV replic up primary fold: further read-out of HSV replic up, marked with its call; fold increase; compound at 10 µM; measured here: primary screen fold increase 10 uM; tested in PC3 cells;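 GFP signal in the first replicate; 1 = infected wells without compound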
The depositor's hits bear a star; i = inactive; . = not tested or not shown.

SMILES	PKD1 inh	HSV replic up	HSV replic up primary fold	INS promoter inh	INS promoter inh cell count	RGS16-Gao	GALR2 agonist
Cc1cc2nc(-c3ccc(SCC(=O)N4CCOCC4)nc3)[nH]c2cc1C	-5	i	0.92	-58	136	104	-0.6
COC(=O)CSc1nnc(CNC(=O)c2cc(OC)cc(OC)c2)n1-c1ccc(F)cc1	-8	i	0.94	22	191	106	.
N#CNC(=Nc1ccccc1)SCc1ccc(C(=O)O)cc1	0	i	0.93	.	.	101	.
Cc1ccc(NS(=O)(=O)c2ccc(N/N=C/c3ccncc3)c([N+](=O)[O-])c2)c(C)c1	-6	i	0.71	26	123	115	-0.7
Cc1ccc(S(=O)(=O)N2CCN(S(=O)(=O)c3ccc(C)cc3)C3OCCOC32)cc1 (stereo not given)	-6	i	1.2	21	114	98	-3.2
Oc1c(CN2CCOCC2)cc(-c2ccccc2)cc1CN1CCOCC1	-14	i	1	-45	111	101	-3.4
Cc1cc(/C=C2\SC(=Nc3ccccc3)NC2=O)c(C)n1-c1ccc(S(N)(=O)=O)cc1	8	i	0.71	21	61	63	1.1
O=C(O)CC(CC(=O)Nc1ccc(-n2ccc(C(F)(F)F)n2)cc1)c1ccccc1 (stereo not given)	.	i	0.89	.	.	108	.
CC(C)(C)n1ncc2c(=O)n(CC(=O)N3CCCCCC3)cnc21	-7	i	1	.	.	110	-1.4
CSCCC(NS(=O)(=O)c1ccc(F)cc1)C(=O)NCc1ccc(S(N)(=O)=O)cc1 (stereo not given)	.	i	0.93	.	.	104	.
O=C(Nc1ccc(C(=O)O)cc1)Nc1ccc(F)cc1F	3	i	0.82	9	102	99	.
O=C(NCc1nnc(SCC(=O)N2CCCc3ccccc32)n1-c1ccccc1)c1cccc2ccccc12	11	.	.	.	.	105	-1.7
COc1ccc(NC(=O)CSc2nc(C)cs2)cc1OC	-13	i	0.92	3	71	98	-3.3
O=C(Oc1cccc(-n2cnnn2)c1)C1CCCCC1	-3	i	0.94	.	.	102	-1.1
CC1CCN(C(=O)CSc2nncn2-c2ccccn2)CC1	-12	i	0.87	-15	60	96	0.5

Of the compounds above, these have a carbonyl joined to an NH by a bond outside any ring:
SMILES	PKD1 inh	HSV replic up	HSV replic up primary fold	INS promoter inh	INS promoter inh cell count	RGS16-Gao	GALR2 agonist
COC(=O)CSc1nnc(CNC(=O)c2cc(OC)cc(OC)c2)n1-c1ccc(F)cc1	-8	i	0.94	22	191	106	.
O=C(O)CC(CC(=O)Nc1ccc(-n2ccc(C(F)(F)F)n2)cc1)c1ccccc1 (stereo not given)	.	i	0.89	.	.	108	.
CSCCC(NS(=O)(=O)c1ccc(F)cc1)C(=O)NCc1ccc(S(N)(=O)=O)cc1 (stereo not given)	.	i	0.93	.	.	104	.
O=C(Nc1ccc(C(=O)O)cc1)Nc1ccc(F)cc1F	3	i	0.82	9	102	99	.
O=C(NCc1nnc(SCC(=O)N2CCCc3ccccc32)n1-c1ccccc1)c1cccc2ccccc12	11	.	.	.	.	105	-1.7
COc1ccc(NC(=O)CSc2nc(C)cs2)cc1OC	-13	i	0.92	3	71	98	-3.3

Remaining list, next part.
SMILES	PKD1 inh	HSV replic up	HSV replic up primary fold	INS promoter inh	INS promoter inh cell count	RGS16-Gao	GALR2 agonist
O=C(CSc1nc2ccccc2o1)Nc1nc2ccccc2s1	-2	i	0.82	-21	150	103	-3.0
COc1cc(Cl)c(CC(=O)c2c[nH]c3ccccc23)cc1OC	.	i	0.91	.	.	103	.
Cc1ccc(CN2CCSc3ccc(C(=O)NCc4ccco4)cc32)cc1	1	i	0.96	-43	117	104	.
O=C(CSc1n[nH]c(-c2ccccc2Br)n1)NCCN1C(=O)CSC1=O	-4	i	0.91	-194	137	95	-0.8
COc1cc(SC)ccc1C(=O)N1CCN(c2ccccc2OC)CC1	-4	i	0.74	.	.	105	.
COc1ccc(NC(=S)Nc2cccc(C(C)=O)c2)cc1OC	4	i	0.94	21	65	100	.
CC(C)(C)C(=O)NC(=S)Nc1ccccc1C(=O)NC1CCCCC1	10	i	0.89	.	.	99	.
Fc1ccc(-n2ncc3c(SCc4cccnc4)ncnc32)cc1	5	i	0.94	.	.	100	.
O=C(NCc1ccc(Cl)cc1)c1ccc(Cn2cc(C(F)(F)F)ccc2=O)cc1	-3	i	0.62	-4	102	102	-1.4
CC(C)CNC(=S)N1CCC(NC(=O)c2ccco2)CC1	-4	i	0.82	.	.	98	.
CCOc1cc(C#N)c(NC(=O)c2ccco2)cc1OCC	-1	i	0.75	.	.	96	-0.1
CS(=O)(=O)N1N=C(c2ccco2)CC1c1ccccc1Cl (stereo not given)	.	i	1.1	.	.	133	.
Cc1ccc(S(=O)(=O)N(C)Cc2cc3ccccc3[nH]c2=O)cc1	-4	i	0.7	17	146	99	-1.5
O=C(CSc1nc2ccccc2s1)NCCOc1ccccc1	-6	i	0.95	.	.	95	-0.9
Cc1ccc(C2C(C(=O)c3sc(-c4ccccc4)nc3C)=C(O)C(=O)N2CCN(C)C)o1 (stereo not given)	-4	.	.	-64	99	.	-0.4
Cc1cccc(NC(=O)c2c(F)c(F)c(F)c(F)c2F)c1	4	i	0.83	7	70	151	0.1
C[C@H](NC(=O)[C@@H]1CCC(=O)N1Cc1ccco1)c1ccccc1	0	i	1	.	.	93	.
COc1ccc(Nc2ncnc3sc(-c4ccccc4)cc23)c(OC)c1	.	i	0.89	.	.	105	.
CCCOc1ccc(/C=N/Nc2ccccc2[N+](=O)[O-])c(O)c1	-6	i	0.93	-10	122	107	-1.3
CC1(C)Cc2c(sc3c2c(=N)n(Cc2ccco2)c(=O)n3Cc2ccc(F)cc2)CO1	-18	i	0.62	.	.	94	-0.4
COC(=O)C1=C(C)Nc2nc3ccccc3n2C1c1ccccc1F (stereo not given)	.	i	0.9	.	.	97	.
COC(=O)c1cc(NC(=O)CN2CCC(C(N)=O)(N3CCCCC3)CC2)cc(C(=O)OC)c1	-5	i	1	32	68	170	-1.3
CCOc1ccc(S(=O)(=O)N(CC(=O)N/N=C/c2ccc(-c3ccc([N+](=O)[O-])cc3)o2)c2ccccc2)cc1	-2	i	0.73	.	.	90	-1.5
CC(C)NCC(O)COc1ccc2c(c1)CCC2 (stereo not given)	7	i	0.9	3	116	103	0.4
CCN1CCN(c2nc3c(c(=O)[nH]c(=O)n3C)n2CCSc2nc3ccccc3s2)CC1	-11	i	1.1	.	.	102	-0.3
CCOC(=O)c1sc2nc(C)nc(NCCc3ccccn3)c2c1C	-6	i	0.96	94*	81*	105	.
Cc1cc(C)cc(Nc2c(F)c(F)c(F)c(F)c2C(=O)O)c1	3	i	0.92	-8	148	109	.
COc1ccc2c(c1)c(=O)oc1c(C)c(OCC(=O)N3CCc4ccccc4C3)ccc12	13	.	.	.	.	332	-1.4
COC(=O)c1[nH]c(C)c(/C(O)=C2\C(=O)C(=O)N(CCN3CCOCC3)C2c2ccccc2OC)c1C (stereo not given)	-1	i	0.9	.	.	101	0.0
CCc1c(C)nc2c(C)cccc2c1SCCC#N	6	i	0.93	.	.	92	.
S=C(NCCCn1ccnc1)Nc1cccc(Cl)c1	8	i	0.86	.	.	103	.
CCOc1cc(S(=O)(=O)n2c(C)nc3ccccc32)ccc1F	-5	i	0.96	-12	76	133	-2.0
COc1ccc(Br)cc1S(=O)(=O)Nc1cccc(C)n1	-7	i	0.92	.	.	97	.
CCOC(=O)CNS(=O)(=O)c1cc(-c2n[nH]c(=O)c3ccccc23)ccc1C	1	i	0.98	36	95	101	-0.2
Cc1nc(NC(=O)CSc2nnc(C)n2CC2CCCO2)sc1C (stereo not given)	7	i	0.9	3	154	92	-1.8
CCCCSc1ncnc2[nH]ncc12	.	i	1	.	.	96	.
CCOC(=O)c1[nH]cc(-c2ccccc2)c1N1CCOCC1	0	i	1.1	-485	108	49	-0.8
O=C(CNc1n[nH]c(=O)[nH]c1=O)N/N=C/C=C/c1ccccc1	.	i	1.2	.	.	100	.
Cc1ccc(SC(C)c2nc(-c3ccccc3)no2)cc1 (stereo not given)	-3	i	1.1	15	123	105	-2.0
CCCOc1ccc(NC(=O)CC2C(=O)N(Cc3ccccc3)C(=S)N2Cc2cccs2)cc1 (stereo not given)	6	i	0.99	7	74	19	0.2
CCC12CN(C(=O)c3ccc(C)cc3)CC(CC)(CN(C(=O)c3ccc(C)cc3)C1)C2=O	-2	i	1	-41	77	88	-0.8
COc1ccc2c(c1O)C(=O)c1ccccc1C2=O	7	.	.	.	.	101	.
CCCCc1nc(NCc2ccccc2)c(C#N)c2c1CCCC2	-10	i	0.91	4	115	100	-1.6
CCOCc1nnc(NC(=O)c2cc(C(=O)OC)cc([N+](=O)[O-])c2)s1	1	i	0.81	.	.	98	.
CCCCCn1c(CNC(=O)CCC)nc2ccccc21	-9	i	0.91	.	.	104	-4.0
COc1ccc(C(C)NC(=O)c2ccccc2Cl)cc1OC (stereo not given)	-6	i	0.92	-47	104	97	-1.4
O=C(c1cc2c(s1)-c1ccccc1S(=O)(=O)C2)N1CCN(Cc2ccccc2)CC1	1	.	.	.	.	107	-2.9
O=C(CCc1nnc(CCCCc2ccccc2)o1)N1CCN(CCO)CC1	.	i	0.89	.	.	96	.
O=C(c1cc(-c2cccs2)on1)N1CCCCC1	-10	.	.	.	.	100	-0.6
O=C(c1cccs1)N1CCc2ccccc2C1	-5	i	0.97	.	.	107	.
O=S(=O)(Nc1ccc(O)cc1)c1cccc2cccnc12	-9	i	0.93	.	.	104	-0.7
COc1ccc(C(=O)N/C(=C/c2ccco2)C(=O)NC2CCS(=O)(=O)C2)cc1 (stereo not given)	3	i	1	7	95	94	.
CC1(c2ccc([N+](=O)[O-])cc2)CC(C)(C)N(C(=O)c2ccccc2)c2ccccc21 (stereo not given)	-2	i	1	-9	90	72	-1.4
NC(=O)C1(C(N)=O)OC1c1ccc(Cl)cc1Cl (stereo not given)	.	i	0.9	.	.	95	.
CC(C)c1ccccc1NC(=S)NC(C)c1ccccc1 (stereo not given)	-8	i	0.77	-11	53	92	0.1
O=C(NCc1ccco1)C(=O)c1cn(CC(=O)N2CCCCCC2)c2ccccc12	-6	.	.	-200	128	101	.
Cc1cccc(NC(=S)Nc2c(C)n(C)n(-c3ccccc3)c2=O)c1C	2	i	0.94	31	28	171	-1.1
Cc1ccc(C(=O)CSc2ccc(-c3ccncc3)nn2)cc1	6	i	0.84	.	.	101	.
C[C@H](NC(=O)c1ccccc1Cl)C(=O)NCc1cccs1	0	.	.	7	171	103	.
CC(=O)Nc1ccc(C(=O)N/C(=C/c2ccccc2)C(=O)Nc2cccc(C(=O)O)c2)cc1	-11	i	0.78	.	.	110	.

Profiles as entered above.
O=C(c1cc2c(s1)-c1ccccc1S(=O)(=O)C2)N1CCN(Cc2ccccc2)CC1 is entered as PKD1 inh = 1; HSV replic up = .; HSV replic up primary fold = .; INS promoter inh = .; INS promoter inh cell count = .; RGS16-Gao = 107; GALR2 agonist = -2.9
COc1ccc(C(C)NC(=O)c2ccccc2Cl)cc1OC (stereo not given) is entered as PKD1 inh = -6; HSV replic up = i; HSV replic up primary fold = 0.92; INS promoter inh = -47; INS promoter inh cell count = 104; RGS16-Gao = 97; GALR2 agonist = -1.4

Following part
SMILES	PKD1 inh	HSV replic up	HSV replic up primary fold	INS promoter inh	INS promoter inh cell count	RGS16-Gao	GALR2 agonist
CCNC(=O)c1sc(=S)n(-c2ccc(C)cc2)c1N	1	i	0.87	47	132	108	-3.1
COc1cccc(NC(=O)C(C#N)Cc2ccncc2)c1 (stereo not given)	-8	i	1	-42	79	86	-0.5
CCOc1ccc(NC(=O)N2CCC(NC(=O)c3ccco3)CC2)cc1	7	i	0.94	57	118	102	0.5
O=C(c1cccnc1)N1CCN(CCCc2ccccc2)CC1	-7	.	.	6	85	102	-1.2
Cc1ccc(-c2nc(C)c(C(=O)O)s2)cc1	-4	i	1	.	.	99	.
O=C(NCc1ccco1)c1ccc2ccccc2n1	1	i	1.1	.	.	112	.
Nc1nnn(Cc2ccccc2)n1	-4	i	1.1	18	123	96	0.7
O=C(/C=C/c1cccc(F)c1)N(c1ccccn1)C1CCCCC1	15	i	1.1	.	.	105	0.0
Cc1ccc(C)c(NC(=O)Cn2c(=O)n(-c3ccc(CC(=O)NCC4CCCO4)cc3)c(=O)c3ccccc32)c1 (stereo not given)	-1	i	0.89	13	87	108	.
N#CCOc1nc(N2CCCC2)nc(N2CCCC2)n1	-8	i	0.77	17	86	104	-2.7
COc1cccc(CNCC(O)(c2ccc(Cl)cc2)c2ccc(Cl)cc2)c1	-3	i	0.93	.	.	96	-2.7
CCCc1nnc(SCC(=O)N2CCCCC2)n1CCCOC	-5	i	0.9	-5	101	102	-2.1
CCOc1ccc(-c2nc[nH]c2[N+](=O)[O-])cc1	-2	i	0.98	27	125	114	.
COc1ccc(C=O)cc1COc1ccc(C)cc1[N+](=O)[O-]	2	i	0.49	.	.	99	-0.6
COc1ccccc1Nc1nc(-c2ccccc2O)nc2ccccc12	-6	i	0.99	.	.	100	.
CN1Cc2cc(C(=O)c3ccccc3O)cnc2NC1=O	-9	i	0.9	38	88	100	0.9
